# High-throughput results deposited in PubChem by National Center for Advancing Translational Sciences (NCATS).
# CtBP-E1A inh = blocks the CtBP interaction with E1A | activity change, % (test concentration not listed) | AlphaScreen GST-E1A/His-CtBP binding, 1536-well; stronger effect = lower value; control for the full effect not named in the record | hit rate 0.49% among 340,000; in the data active means activity change below about -65%; inconclusive means about -30% to -65%; inactive means above about -30%; also: % is scaled to controls: 0 for no effect and ±100 for the full control effect; compound concentration not given in the record
#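 GST-E1A and His-tagged CtBP (125 nM each as 5X stock) were preincubated with pin-transferred compound for 2 h at 37 °C in the dark, then glutathione donor and nickel acceptor beads were added for 1 h before AlphaScreen reading.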
# PINK1 modulator = modulators of PINK1 expression | Potency, µM (highest dose often 76.6 µM), for the others: top-dose activation (PINK1 increase), hits mostly activators | AID 624263 | hit rate 0.2% among 410,000 | PINK1 immunofluorescence, high-content cytometry, 24 h; active = well fitted activation curve with a large enough effect; inconclusive = small, poorly fitted or top-dose-only effect; inactive = flat fitted curve, though single readings scatter; cell line not stated here;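 also: potency is read from the fitted curve at half-maximal effect; % of control where 0% means no effect; nearly all actives have a fitted effect of over 65% in size; a mitochondrial uncoupler was the plate control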
#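 Measures PINK1 amount and localization on or inside mitochondria by immunofluorescence. Stable cells get compounds at 5 concentrations for 24 hours before fixation and staining; CCCP controls included.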
# D2 ag = agonists of human D2 dopamine receptor (beta-arrestin); P14416; DiscoveRx PathHunter D2 beta-arrestin, luminescence, 90 min; 100% = 57 uM dopamine signal; activation, % (no concentration beside the values); hit rate 0.084% among 360,000; in the data active = activation above about 40%; inconclusive = about 15% to 40%; inactive = below about 15%; also: compound concentration not given in the record; the text of the record calls up to 30% inactive
# Target sequence (P14416 whole entry, looked up): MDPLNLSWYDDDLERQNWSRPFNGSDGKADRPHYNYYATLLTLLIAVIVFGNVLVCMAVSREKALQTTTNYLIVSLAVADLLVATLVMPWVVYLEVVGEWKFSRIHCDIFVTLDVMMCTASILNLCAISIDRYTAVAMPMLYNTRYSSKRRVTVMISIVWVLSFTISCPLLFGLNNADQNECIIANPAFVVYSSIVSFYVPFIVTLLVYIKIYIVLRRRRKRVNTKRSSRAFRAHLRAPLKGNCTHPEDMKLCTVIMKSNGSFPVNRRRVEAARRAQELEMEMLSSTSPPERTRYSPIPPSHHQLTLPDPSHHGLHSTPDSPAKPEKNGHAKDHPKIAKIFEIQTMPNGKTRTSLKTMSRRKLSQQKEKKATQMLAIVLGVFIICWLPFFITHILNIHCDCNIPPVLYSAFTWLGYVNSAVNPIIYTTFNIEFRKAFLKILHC
#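 Agonist mode: compounds alone added to overnight-plated D2 PathHunter cells for 90 min at 37 C, with 57 uM final dopamine (EC100) defining full response. Beta-arrestin recruitment detected by chemiluminescent reagent, read after 1 h at ambient temperature.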
# TRPML1 blocker = human mucolipin-1 channel inhibition | TRPML1-inducible cells, Ca2+ dye fluorescence, FDSS; stronger effect = lower value; inhibition of EC80 agonist-evoked calcium signal | hit rate 0.02% among 390,000 | activity change, negative = inhibition, % (concentration not given with the values); in the data active means activity change below about -50%; inconclusive means about -30% to -50%; inactive means above about -30%;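 also: stimulus is agonist 54-4 at its EC80 concentration; % is scaled to controls: 0 for no effect and ±100 for the full control effect; compound concentration not given in the record; the text of the record puts the active cut at -80%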
# Target sequence (Q9GZU1 whole entry, looked up): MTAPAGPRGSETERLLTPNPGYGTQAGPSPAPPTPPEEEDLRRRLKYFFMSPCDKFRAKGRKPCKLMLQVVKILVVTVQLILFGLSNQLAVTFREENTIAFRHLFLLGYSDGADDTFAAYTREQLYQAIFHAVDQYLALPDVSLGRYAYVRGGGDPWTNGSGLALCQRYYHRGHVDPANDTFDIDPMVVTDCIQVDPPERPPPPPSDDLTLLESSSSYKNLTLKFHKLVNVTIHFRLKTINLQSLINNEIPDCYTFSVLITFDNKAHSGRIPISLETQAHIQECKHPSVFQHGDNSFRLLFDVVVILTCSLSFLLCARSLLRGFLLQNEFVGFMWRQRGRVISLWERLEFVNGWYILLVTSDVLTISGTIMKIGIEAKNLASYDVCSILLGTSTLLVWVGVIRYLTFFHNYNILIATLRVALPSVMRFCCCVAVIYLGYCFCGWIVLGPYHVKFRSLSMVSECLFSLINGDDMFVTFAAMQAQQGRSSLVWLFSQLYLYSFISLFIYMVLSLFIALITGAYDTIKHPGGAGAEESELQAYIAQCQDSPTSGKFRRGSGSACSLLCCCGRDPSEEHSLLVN
#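 Tet-induced TRPML1-DL cells loaded with Ca8 no-wash calcium dye were read kinetically on FDSS. Compound addition was followed by EC80 agonist 54-4 (4 uM final); inhibition was read over 110 s.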
# TRPML1 ag = human mucolipin-1 channel agonism; TRPML1-expressing cells, Ca2+ dye fluorescence, FDSS; host cell line not named in the record; reference of the full effect not given here; Q9GZU1; activation, % (test concentration not listed); AID 624414; hit rate 0.12% among 410,000; in the data active = activation above about 50%; inconclusive = about 30% to 50%; inactive = below about 30%; also: 0% is about no effect; the text of the record puts the active cut at 80%
#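 TRPML1-DL cells, Tet-induced overnight (~16 h, 37 degrees C), loaded 45-90 min at room temperature with Ca8 no-wash calcium dye plus quencher. FDSS fluorescence: 10 s baseline, compound pin-transfer, 110 s agonist read, then EC80 54-4 (4uM final) and 110 s antagonist read.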
# Six1-Eya2 blk = Six1/Eya2 interaction inhibition; Q15475+O00167; AlphaScreen GST-Six1/His-Eya2 binding, biochemical; stronger effect = lower value; control for the full effect not named in the record; activity change, % (test concentration not listed); hit rate 0.56% among 360,000; AID 651725; in the data active = activity change below about -65%; inconclusive = about -30% to -65%; inactive = above about -30%; also: % is scaled to controls: 0 for no effect and ±100 for the full control effect; compound concentration not given in the record
#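 Six1/Eya2 binding was read as AlphaScreen signal after compounds were pinned into GST-Six1 plus His-tagged Eya2 (5X stock 250/500 nM) in pH 8.0 Tris/NaCl/TCEP buffer, beads added, then incubated 1 h, 37 C, dark.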
# * hit, by the source's call; ? = inconclusive; / = no result given; & = joins results of further samples; [ ] = dose if it differs, or a comment.
SMILES,CtBP-E1A inh,PINK1 modulator,D2 ag,TRPML1 blocker,TRPML1 ag,Six1-Eya2 blk
CC(C)=CCc1c(-c2ccc(O)cc2O)oc2c3c(cc(O)c2c1=O)OC(C)(C)C=C3,-18,-1.1%,?,?,0.7,-10
COc1ccc(CCN(C)C(=O)COC(=O)/C=C/c2ccc(C)o2)cc1OC,0,3.1%,-0.1,-15,0.2,2
O=CN(CCN(C=O)CN1CCCCC1)CN1CCCCC1,-10,-0.6%,-0.9,0,-0.7,10
Cc1ccc(-n2ncc3c(=O)[nH]c(SCC(=O)N4CCOCC4)nc32)cc1,7,1.1%,-2.0,-11,0.0,2
Cc1ccc(CNC(=O)Nc2ccccc2)cc1,6,-0.4%,-0.8,6,0.8,4
CCOC(=O)c1ccc(NC(=O)c2cnc(N3CCCC3)nc2C)cc1,/,2.7%,/,21,4.1,/
Cc1cc(C(C)(C)C)cc(C)c1C(=O)O,-2,-0.3%,-4.2,-4,-0.3,-3
CCNC(=O)CN(C1CCCCC1)S(C)(=O)=O,14,-1.4%,1.3,-2,0.8,16
CC1(C)OC(=O)C2=C(C[C@@H](C3CC3)O[C@H]2c2ccc(Cl)cc2)O1,7,2.1%,/,/,-0.8,2
CCc1ccc2nc(N3CCC(C(=O)O)CC3)sc2c1,/,2.4%,/,33,-0.7,/
COc1ccc(NC(=O)Cn2nc(C(=O)O)c3ccccc3c2=O)cc1Cl,0,0.1%,-2.2,3,0.8,-12
Cc1ccc(C2(c3ccc(C)cc3)CC2C(=O)NC(C)C)cc1 (centres undefined),-18,9.1%,-3.8,12,1.7,-7
CCOc1ccc(S(=O)(=O)n2nc(C)cc2C)cc1,4,2.1%,1.6,-3,0.1,4
COc1cccc(S(=O)(=O)N2CCN(Cc3ccc4c(c3)OCO4)CC2)c1,-14,-1.9%&-0.2%,-3.1,-8&-3,2.4&4.7,-12
CC[N+](C)(CC)CC(=O)OCC1C(C)C=C(C)CC1C (centres undefined),-7,0.2%,-4.5,-10,0.5,4
CN(CC(=O)Nc1ccc(F)c(F)c1F)C(=O)C1CSC2(C)CCC(=O)N12 (centres undefined),6,0.2%,2.2,-10,-0.3,5
O=C(O)CSc1nnc(Cn2cnc3ccccc32)n1CCc1ccccc1,7,1.9%,0.5,-12,-0.3,10
CC(=O)N1CCCc2cc(S(=O)(=O)NCc3ccc(OC(C)C)cc3)ccc21,/,0.9%,/,-4,0.4,/
CSc1ncccc1C(=O)OCc1ccc(Br)cc1,6,2.9%,0.4,2,2.6,42
CC1Cc2cc(S(=O)(=O)N3CCC(C(=O)N(C)Cc4ccco4)CC3)ccc2N1C(=O)C1CCC1 (centres undefined),/,-0.7%,-5.8,-4,0.0,-9
COC(=O)C1CN(S(=O)(=O)c2ccc(C)cc2)CCN1S(=O)(=O)c1ccc(C)cc1 (centres undefined),-2,5.7%,-2.7,13,0.8,-5
Cc1[nH]cnc1C(=O)N/N=C/c1c(Cl)cccc1Cl,-2,2.2%,-4.2,14,2.0,13
COCC1CCN(C(=O)c2cc(COc3ccc(-n4cncn4)cc3)on2)C1 (centres undefined),2,3.5%,-1.8,10,-0.5,3
Cc1nccn1-c1ccc(C(F)(F)F)cc1[N+](=O)[O-],0,2.3%,0.5,-9,-0.6,17
O=C(Cc1n[nH]c(=O)c2ccccc12)OCC(=O)N(Cc1ccccc1)Cc1ccccc1,/,-1.4%,-4.3,-8,0.6,-6
Cc1ccc(-c2nn(C)c(=O)c3ccccc23)cc1CNS(C)(=O)=O,-10,2.4%,0.9,2,0.3,15
N#CCCCC1(CCCC#N)OCCO1,9,-0.5%,3.3,-7,-0.1,4
COC(=O)c1ccc2c(c1)N(Cc1ccc(F)cc1)C(=O)c1ccccc1S2,/,2.0%,/,-12,-0.7,/
CCN(CC(=O)Nc1ccccc1C(F)(F)F)C(=O)CN1C(=O)NC(C)(c2ccc3ccccc3c2)C1=O (centres undefined),0,-0.4%,-0.6,-9,0.3,-2
NC(=O)NC(=O)C[n+]1cccc(/C=N/O)c1,0,1.0%,-1.7,31,0.0,5
COc1ccc(CN(CC(=O)NC2CCCC2)C(=O)c2csnn2)cc1,11,-1.6%,3.2,10,-0.3,2
CCOC(=O)Cc1cc(=O)n2[nH]c(C)c(-c3ccccc3OC)c2n1,0,-0.2%,-0.4,-3,-0.7,-1
COc1ccc(N2CCN(C(=O)C3CC(=O)N(c4ccc(C)cc4)C3)CC2)cc1 (centres undefined),1,-2.9%,-1.1,-17,-0.7,0
CC(C)C[C@H](CO)N(Cc1ccccc1)S(=O)(=O)N(Cc1ccccc1)[C@@H](CO)CC(C)C,5,-1.3%,-1.3,-4,3.1&0.7,1
O=C(Nc1ccccc1)C1=C(N2CCOCC2)/C(=C/c2cccnc2)CC1,10,/,-1.9,9,0.2,-4
C=CCn1c2ccccc2c2nnc(SCC(=O)O)nc21,-4,-0.1%,1.8,6,0.1,-15
C=C(C)c1cccc(C(C)(C)NC(=O)NC2CCN(Cc3ccccc3)CC2)c1,/,2.5%,-5.8,0,0.3,9
CC(=O)N1CN(Cc2ccccn2)Cc2c1sc1c2CCCC1,?,0.0%,-0.4,0,-0.7,-74*
CN(CCc1cn[nH]c1)C(=O)CC1C(=O)NCCN1Cc1ccccc1C(F)(F)F (centres undefined),-24,-0.2%,-13,7,1.4,-2
COc1cccc(CN(C(=O)c2ccccc2Br)C2CCS(=O)(=O)C2)c1 (centres undefined),-12,1.5%,-0.7,-23,-1.1,-1
COc1nc(NCc2cccnc2)nc(NC2CCCCC2)n1,/,0.7%,0.9,-8,0.7,1
COC(=O)C1C(=O)/C(=C(/C)N2CCCC2)C(=O)CC1(C)C (centres undefined),7,-0.9%,0.1,-22,0.1,3
CCN(CC)S(=O)(=O)c1ccc(/C=C/C(=O)Nc2cccc(F)c2)cc1,-8,1.3%,1.4,13,1.6,-17
Cc1cc(O)c2c(-c3ccccc3)cc(=O)oc2c1,-6,2.5%,-3.5,3,2.9,2
O=C(CN1CCN(C(=O)c2ccco2)CC1)Nc1ccccc1,4,1.0%,0.4,-13,0.3,4
COc1cccc(NC(=S)N(CCCN2CCC(C)CC2)Cc2cccs2)c1,-1,-1.9%,-3.2,41,0.5,8
CCOc1ccc2ccccc2c1CNc1nnnn1C,3,-0.1%,-4.5,-6,0.0,3
C[C@H]1CN([C@@H](C)CO)C(=O)CCCn2nncc2CO[C@H]1CN(C)S(=O)(=O)c1ccc(F)cc1,5,0.4%,-1.3,-6,0.2,-2

# 6 entries from above, with values under each structure.
# Results follow in this order: CtBP-E1A inh | PINK1 modulator | D2 ag | TRPML1 blocker | TRPML1 ag | Six1-Eya2 blk
> CN(CCc1cn[nH]c1)C(=O)CC1C(=O)NCCN1Cc1ccccc1C(F)(F)F (centres undefined)
  -24 | -0.2% | -13 | 7 | 1.4 | -2
> O=C(CN1CCN(C(=O)c2ccco2)CC1)Nc1ccccc1
  4 | 1.0% | 0.4 | -13 | 0.3 | 4
> Cc1cc(O)c2c(-c3ccccc3)cc(=O)oc2c1
  -6 | 2.5% | -3.5 | 3 | 2.9 | 2
> CCN(CC)S(=O)(=O)c1ccc(/C=C/C(=O)Nc2cccc(F)c2)cc1
  -8 | 1.3% | 1.4 | 13 | 1.6 | -17
> COc1cccc(NC(=S)N(CCCN2CCC(C)CC2)Cc2cccs2)c1
  -1 | -1.9% | -3.2 | 41 | 0.5 | 8
> COC(=O)C1C(=O)/C(=C(/C)N2CCCC2)C(=O)CC1(C)C (centres undefined)
  7 | -0.9% | 0.1 | -22 | 0.1 | 3

# Additional compounds:
SMILES,CtBP-E1A inh,PINK1 modulator,D2 ag,TRPML1 blocker,TRPML1 ag,Six1-Eya2 blk
CCCn1cc(S(=O)(=O)CC(=O)Nc2ccc(OC)cc2OC)c2ccccc21,9,/,8.9,0,1.7,-2
NS(=O)(=O)c1ccc(NC(=S)NCc2ccco2)cc1,0,0.5%,2.3,-13,-0.2,-5
Nn1c(SCc2ccccc2)nnc1-c1ccco1,4,0.3%,-1.7,1,-0.8,0
COc1ccc(C2C(C#N)=C(N)Oc3n[nH]c(-c4ccccn4)c32)c(OC)c1OC (centres undefined),?,-0.1%,-0.2,-5,-1.4,?
Cc1c(Cl)c([N+](=O)[O-])nn1CC(=O)N1CCc2ccccc2C1,-9,0.1%,0.5,17,-0.1,5
CC1=C(C(=O)OCc2ccccc2)C(c2cccc([N+](=O)[O-])c2)NC(=O)N1 (centres undefined),/,1.0%,3.6,/,/,-2
COc1ccc(NC(=O)N2CCCc3ccccc32)cc1OC,-1,-0.9%,4.2,5,0.1,-6
CCN(CC(=O)Nc1cccc(F)c1)CC(=O)Nc1ccc2c(c1)OCCO2,-2,-0.1%,0.0,23,0.1,12
O=C(Nc1ccccc1)Nc1ccc(-n2ccc(C(F)(F)F)n2)cc1,-2,0.6%,-2.6,30,1.5,8
Cc1sc(NC(=O)CN2CCCC2)nc1-c1ccc2c(c1)CCN2C(=O)c1cccc(F)c1,-18,-1.1%,7.6,-9,0.0,-17
CCOC(=O)N1CCC(=NNc2nc3ccccc3s2)CC1,-7,1.2%,-0.8,-12,0.9,-1
Oc1c(N=Nc2ccc(F)cc2)ccc2ccccc12,-76*,5.6%,0.5,-14,0.8,?
CCO[C@@H]1OC(C(=O)NC2CC2)=C[C@H](C2CCCCC2)[C@H]1CCCO,0,2.0%,-2.2,3,-0.6,1
COc1ccccc1C(=O)NCC(=O)N(C)Cc1nc2ccccc2c(=O)[nH]1,4,-0.9%,-0.4,-11,-0.3,3
CN(C)S(=O)(=O)c1ccc(NC(=O)c2cc(F)c(F)cc2Cl)cc1,3,5.0%,-5.8,8,-0.9,-1
O=C(NC1CCCCC1)C(c1ccc(F)cc1)N(C(=O)c1csnn1)C1CC1 (centres undefined),-4,7.1%,-2.1,0,0.0,0
Cc1ccc(C)c(-c2nnc(OCC(=O)Nc3cc(C)on3)c3ccccc23)c1,-8,-1.6%,-0.9,20,1.8,-7
COC(=O)C(C)Oc1ccc(Cc2ncc(C(F)(F)F)cc2Cl)cc1 (centres undefined),/,0.0%,-0.5,?,1.6,15
COc1cc(/C=N/NC(=O)CCc2n[nH]c(=O)[nH]c2=O)cc(OC)c1OC,-13,-2.2%,2.1,6,1.5,-10
Cc1ccc(-c2nnn(CC(=O)N(CC(=O)NC3CCCC3)c3ccc(F)cc3)n2)o1,0,3.1%,-2.8,10,0.6,6
CCCc1nnc(NC(=O)C23CC4CC(CC(C4)C2)C3)s1,-4,9.8%,-0.1,-1,0.8,-26
Cn1c2ccccc2c2cc(C(=O)N3CCOCC3)sc21,5,-1.7%,0.6,4,0.8,-2
c1ccc(-n2c(-c3ccncc3)nnc2-c2ccco2)cc1,-5,7.9%[38.3 µM],-1.7,21,-0.1,2
CC(CN1CCCCC1)c1ccccc1 (centres undefined),8,-0.7%,1.7,6,-0.4,-1
CC(c1nccs1)N(C)c1nc2nonc2nc1NC1CC1 (centres undefined),6,7.5%,0.7,0,0.6,5
CCCS(=O)(=O)NC(=O)C1(C)CCN(C(=O)/C=C/c2ccccc2)C1 (centres undefined),5,1.1%,-3.2,/,0.0,3
